# Bioassay records from PubChem.
# HIV Env fusion: inhibitors of HIV Env-mediated cell fusion; HeLa-JRFL Env/CEM21 cell fusion, luciferase; actives 1.1% (n = 360,000); inhibition, % at 12.3 µM;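 active means mean replicate inhibition score of at least 50 and every replicate individually at or above 50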;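 further: 0% = plate neutral controls and 100% = maraviroc near 300 nM; one replicate is shown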
# PABP FP inh: PABP-poly(A) binding inhibition | PABP-poly(A) RNA binding, fluorescence polarization | inhibition, % at 35 µM | actives 1% (n = 290,000) | AID 2014;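 active means 50% or more with normal probe brightness, or confirmed in later tests; about a fifth of its hits are not listed in these tables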;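 further: calls also rest on retests at 20 µM and on dose response follow-up; controls were probe without protein and protein plus probe with vehicle; some compounds called inactive have numbers as strong as hits; many hits fall short of the cut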
# Target sequence (P11940 whole entry, looked up): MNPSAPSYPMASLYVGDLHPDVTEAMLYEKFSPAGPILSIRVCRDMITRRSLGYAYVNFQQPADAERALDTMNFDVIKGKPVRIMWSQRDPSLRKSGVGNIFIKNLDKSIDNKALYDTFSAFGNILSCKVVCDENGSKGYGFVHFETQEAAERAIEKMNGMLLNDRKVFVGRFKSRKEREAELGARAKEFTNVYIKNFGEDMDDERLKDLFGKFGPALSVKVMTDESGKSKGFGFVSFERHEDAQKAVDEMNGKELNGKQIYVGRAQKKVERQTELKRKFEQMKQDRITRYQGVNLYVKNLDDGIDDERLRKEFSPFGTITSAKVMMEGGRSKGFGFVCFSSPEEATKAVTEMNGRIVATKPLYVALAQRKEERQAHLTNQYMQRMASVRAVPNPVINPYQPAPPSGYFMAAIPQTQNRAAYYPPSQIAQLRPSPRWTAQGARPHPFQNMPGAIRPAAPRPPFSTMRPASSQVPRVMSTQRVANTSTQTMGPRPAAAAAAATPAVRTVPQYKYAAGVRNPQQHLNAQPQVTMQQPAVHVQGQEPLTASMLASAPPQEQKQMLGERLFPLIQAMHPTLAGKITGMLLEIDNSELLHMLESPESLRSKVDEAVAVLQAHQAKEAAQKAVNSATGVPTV
# UUG fidelity: modulators of start codon recognition fidelity in yeast. actives 0.13% (n = 350,000). S. cerevisiae UUG-firefly luciferase reporter, luminescence/redox ratio. activity score, % at 18.7 µM;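 active means replicate mean at a twofold rise or more, about +100% in these data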;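 further: firefly luciferase made from a UUG start codon reports start codon fidelity; reporter light over untreated wells divided by growth signal over untreated wells; some hits fall short of that in this replicate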
# eIF4H inh: inhibitors of RNA binding by human eIF4H; eIF4H fluorescence polarization binding assay; inhibition, % at 35 µM; actives 0.94% (n = 290,000);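 active means 50% or more with normal probe brightness, or confirmed in later tests; about a fifth of its hits are not listed in these tables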;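 further: calls also rest on retests at 20 µM and on dose response follow-up; 0% = protein and probe with vehicle and 100% = probe without protein; strong numbers were not always called active; many hits fall short of the cut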
# Rce1 inh: yeast Ras-converting enzyme inhibition | calls only | AID 2563 | actives 0.27% (n = 290,000) | yeast membranes, quenched prenylated peptide cleavage fluorescence;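 active means fall in fluorescence gain of 50% or more versus controls, with final raw signal at or below 3038400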;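 further: plate controls were neutral control wells for no effect and wells lacking membranes for full effect; tested at 10 µM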
# MT1-MMP act inh: blocks activation of human MT1-MMP; P50281; HT1080 RFP-PRO-GFP cells, GFP/RFP ratio fluorescence, overnight; percent of plate control window, DMSO zero; GFP/RFP ratio change, % at 20 µM; actives 0.061% (n = 360,000);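 active means GFP/RFP ratio change of at least 30% with cell ATP level not reduced by more than half and red fluorescence within 50% of control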; further: strong numbers were not always called active
#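 Read-out: GFP/RFP fluorescence ratio; Test system: RFP-PRO-GFP reporter HT1080 cells; Compound dosing: single-point 20 µM compound, 1% DMSO; Times: overnight compound exposure at 37 °C.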
# CSC inhib: blocks cancer stem cells; inhibition, % at 7.5 µM; AID 2717; cancer stem cell-like cells viability, luminescence; actives 1.1% (n = 300,000);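 active means mean at 75% or more and at least half the replicates too; tested in HMLE shEcad cells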;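 further: 0% = median of negative and 100% = median of positive control wells; the first replicate is given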
# MT1-MMP act inh RFP: recorded beside MT1-MMP act inh, whose call it bears; RFP signal change, %; measured here: RFP expression control read;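 0 = vehicle wells; hits needed this value within 50% of zero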
# * = called active by the depositor; i = inactive; / = not tested or not shown. Some of the compounds tested; the hit share may differ from the screen's.
SMILES,HIV Env fusion,PABP FP inh,UUG fidelity,eIF4H inh,Rce1 inh,MT1-MMP act inh,MT1-MMP act inh RFP,CSC inhib
COc1ccc(/C=C/C(=O)N/C(=C\c2ccco2)C(=O)NCCc2nc3ccccc3[nH]2)cc1,-35.5,-5.8,-5.0,-8.2,i,-9.1,-1.2,-9.1
CC(=O)NN1C(=O)c2ccccc2NC1c1ccccc1F (stereo not drawn),-2.5,2.3,-10.3,-3.3,i,1.3,-1.4,-3.7
CCC(=O)Nc1ccc(C(=O)N/N=C/c2c(C)[nH]c3ccccc23)cc1,-8.2,-15.4,-7.2,-1.8,i,-1.9,7.0,/
CCc1nc(C)cn1S(=O)(=O)c1cc(C)c(OC)cc1C,30.6,-0.1,-7.7,0.8,i,3.4,3.0,-4.2
CCc1ccc(OCCCC(=O)Nc2cccc(C(=O)O)c2)cc1,11.2,2.0,-11.7,-2.8,i,4.4,2.3,0.9
C/C(=N\NC(=O)C1COc2ccccc2O1)c1ccc(N2CCOCC2)cc1 (stereo not drawn),-4.6,3.2,/,-4.3,i,6.3,-0.1,-4.6
COc1ccc(S(=O)(=O)Nc2ccccc2C(N)=O)cc1OC,22.2,2.2,/,-2.6,i,0.9,0.3,-1.7
CCC(C)NC(=O)C1CCCN(C(=O)Nc2ccc(F)cc2)C1 (stereo not drawn),56.7*,-0.5,-5.4,-7.7,i,2.5,2.3,27.4
O=S(=O)(Nc1ccc(C(F)(F)F)cc1)c1cccs1,-13.8,-4.8,5.1,7.5,i,-0.9,0.1,-8.4
O=C(NCCNc1ccnc2cc(Cl)ccc12)c1ccccc1F,21.8,-3.3,-2.1,-0.4,i,1.7,-19.9,-7.6
O=C(CN1CCCC1)N1CCCC(c2ccc(F)cc2)c2ccc(F)cc21 (stereo not drawn),-14.5,6.3,0.0,8.6,i,-1.7,2.4,-13.2
Cc1cccc2c1cnn2C(=O)Nc1ccccc1Br,15.1,-18.0,-9.3,-5.9,i,-3.0,-0.7,-0.5
COc1cc(NC(=O)CN2CCN(S(=O)(=O)/C=C/c3ccccc3)CC2)cc(OC)c1OC,-4.5,/,12.7,/,/,-1.0,-6.6,-2.4
CC(C)N(Cc1ccccc1)C(=O)CN1C(=O)c2ccccc2C1=O,4.6,2.2,11.3,-0.4,i,-4.4,-0.1,-4.9
CCN(CC)S(=O)(=O)c1ccc(Cl)c(C(=O)NCc2ccccc2Cl)c1,-24.4,5.5,14.9,-6.6,i,/,/,-5.7
C#CC(CC)(CC)NC(=O)NC1CCCCC1,-6.5,-0.1,/,1.3,i,-3.2,3.8,-13.9
Cc1ccc(-n2cnc3sc(C)c(C)c3c2=O)cc1,-6.5,-12.6,-8.6,3.6,i,4.1,4.5,-11.4
OCc1cn(-c2ccccc2)nc1-c1ccc2c(c1)OCCO2,/,-20.6,-26.1,-2.1,i,-0.1,-13.6,-3.2
COc1ccc(C(=O)N/N=C(\C)CC(=O)Nc2ccc(Cl)cn2)cc1,-25.9,1.5,/,-2.4,i,-1.2,3.7,10.3
Cc1cccc(C)c1N1CCN(S(=O)(=O)N2CCCCC2)CC1,5.7,4.0,-2.0,-3.1,/,-0.9,-5.2,10.7
O=C(NCc1ccc(Cl)cc1)C(=O)N/N=C/c1ccc(Br)cc1,-10.6,-8.9,-7.9,-1.2,i,-3.8,-5.8,-11.8
CCOC(=O)c1ccc(NC(=S)NCc2cccnc2)cc1,5.9,-3.4,-19.1,2.3,i,4.3,-5.4,5.5
O=C(CCl)N1CCN(C(=O)C2COc3ccccc3O2)CC1 (stereo not drawn),-127.9,/,2.6,/,/,-5.3,-8.7,-8.1
c1ccc(Cc2noc(CN3CCN(C4CCc5ccccc5C4)CC3)n2)cc1 (stereo not drawn),12.9,7.4,/,2.4,i,1.7,1.9,26.7
C=CCNc1nc2ccccc2nc1NS(=O)(=O)c1cccc(C)c1,11.3,-0.5,-5.7,-6.5,i,-3.3,-2.0,-1.6
O=C1CCc2cc(S(=O)(=O)N3CCCC3C(=O)N3CCN(c4ccccc4F)CC3)ccc2N1 (stereo not drawn),7.5,-8.1,-15.6,-14.1,/,1.6,-0.6,1.0
Cc1ccc(-c2csc(N(CCO)CCCn3c(C(F)(F)F)nc4ccccc43)n2)cc1,31.7,-7.2,-5.8,21.0,i,-1.6,-22.3,11.6
O=C(NNC(=O)c1cccc2ccccc12)c1ccc(Br)cc1,-25.5,/,-6.5,/,/,2.9,-9.1,/
Cc1ccc(S[C@@H](CCN2CC[C@H](C(C)(C)C)CCC2=O)c2ccccc2)cc1,42.7,11.5,-41.5,-1.8,i,-10.5,-14.8,108.2*
c1ccc(CNc2nc3ccccc3n3cnnc23)nc1,-18.1,-9.0,-20.1,-4.3,i,5.8,2.3,9.1
COc1ccc(NC(=O)c2cn(CCC#N)nc2-c2cc3ccccc3o2)cc1,20.5,-4.8,/,-9.9,i,8.3,5.1,-14.2
C=CCn1c(COc2ccc(CC)cc2)nnc1SCC(=O)NC1CCS(=O)(=O)C1 (stereo not drawn),/,-0.3,-8.6,-0.8,i,-1.6,3.3,4.4
Cc1cc(C(=O)NC2CCCc3c2cnn3-c2cc(F)cc(F)c2)nn1C (stereo not drawn),9.3,-4.7,-5.6,-4.6,i,0.6,-2.5,11.2
Cc1cc(Oc2ccc(Br)cc2)nc(SCC(=O)c2ccccc2)n1,32.0,1.4,/,-17.6,i,-6.2,-7.3,19.3
O=C(c1cc(Br)ccc1Cl)N1CCCC1,-5.0,0.7,/,-7.4,i,-2.6,-0.5,2.3
CC(=O)Nc1cncc(-c2cccc(C(=O)N3CCOCC3)c2)n1,8.1,/,-3.1,/,/,-0.6,5.8,/
CC(=O)c1cccc(-n2nnnc2SCC(=O)NNC(=O)C(C)C)c1,-8.4,-9.3,-13.7,13.3,i,-2.2,2.1,-8.3
COc1ccc(CN2CCN(Cc3cccn3-c3ncccn3)CC2CCO)c(C)c1C (stereo not drawn),8.2,0.1,-6.1,-0.9,i,1.6,4.1,28.0
COC(=O)c1c(C)oc2ccc(N(C(=O)c3ccncc3)S(=O)(=O)c3ccccc3)cc12,/,-9.2,3.9,-9.2,i,-5.6,-16.1,1.6
CCSc1nnc(-c2c[nH]c3ccccc23)o1,/,12.1,-6.3,-11.6,i,-3.7,-2.0,5.4
O=C(COC(=O)/C=C/c1cccc(F)c1)Nc1ccc2[nH]c(=O)[nH]c2c1,4.9,/,2.4,/,i,-0.8,6.7,-7.3
CC(C)(c1cc(Br)c(O)c(Br)c1)c1cc(Br)c(O)c(Br)c1,/,/,-5.8,/,/,5.6,6.5,103.3*
COc1ccc(CNC(=O)COC(=O)C2=COCCO2)cc1,-25.3,-2.8,-12.2,3.4,i,-4.5,0.3,-0.5
Cc1nc2c(C(=O)NCCC3=CCCCC3)c[nH]n2c(=O)c1Cl,-15.6,6.3,-5.5,6.2,i,6.5,2.9,-3.1
Cc1cc(C)n2nc(SCC(=O)N(CC(C)C)c3c(N)n(CC(C)C)c(=O)[nH]c3=O)nc2n1,16.6,12.0,/,-4.0,i,-2.9,-7.9,-10.3
Cc1ccc(C(c2nnnn2CCC(C)C)N2CCN(C)CC2)cc1 (stereo not drawn),/,2.9,-9.5,9.9,/,-3.3,-2.6,-5.9
CCc1ccc(CN2CCN(C(=O)c3ccco3)CC2)cc1,1.1,3.3,-3.8,2.5,i,-2.3,-1.9,-10.1
COc1ccc(NC(=O)CN2CCN(c3ccc(F)cc3)CC2)cc1,6.0,40.1,-17.7,-6.4,i,0.1,-0.8,-10.5
CCCCC(CC)CNC(=O)C(Cc1ccccc1)NS(=O)(=O)c1ccc2c(c1)CCC(=O)N2 (stereo not drawn),-2.9,-6.4,-5.2,-0.7,i,-4.7,-6.5,-1.0
Cc1nnc2n(-c3ccccc3)c(=O)c3c4c(sc3n12)CC(C)CC4 (stereo not drawn),3.4,-10.3,-1.4,0.2,i,5.0,-3.3,-24.0
C=CCNc1nc(NC(C)(C)CO)nc(OCC)n1,-45.3,11.0,-24.2,1.6,i,3.7,3.5,0.7
CCN(CC)CCC(=O)NC(C)(C)Cc1ccc(O)cc1,-16.4,-8.8,-2.0,-2.1,i,5.2,8.8,24.5
CCOC(=O)CN1CC23C=CC(O2)C(C(=O)NC2CCCCCC2)C3C1=O (stereo not drawn),2.2,7.2,-0.8,-0.3,i,-8.8,-4.0,-9.1
O=C(NC(Cc1c[nH]c2ccccc12)C(=O)NCc1ccc(F)cc1)OCc1ccccc1 (stereo not drawn),-26.2,-7.0,-6.5,6.7,i,2.1,-5.7,-8.6
COCCn1c(-c2ccc(F)cc2)nc2oc3cc(OC)ccc3c(=O)c2c1=O,-8.8,-5.0,-0.3,2.4,i,3.7,1.8,/
Cc1cc(N2O[C@H]3C=C[C@@H]2C3)no1,3.0,/,-5.0,/,/,1.5,5.4,/
CC1CC(C)CN(C(=O)Nc2ccc(Br)cc2)C1 (stereo not drawn),4.9,5.0,/,-9.0,i,0.7,3.5,2.7
CC(=O)c1c(C(C)=O)c(C)n(NC(=O)c2ccccc2O)c1C,11.7,9.6,-12.1,-3.9,i,2.9,2.6,-5.0
Cc1nc(Cc2nnc(SCc3nc(N)nc(Nc4ccccc4C)n3)o2)cs1,4.7,6.5,-11.4,-7.1,i,-0.6,-0.2,-33.1
CCOC(=O)c1ccc(Oc2nc(NC)nc(OC)n2)cc1,-115.8,-4.4,/,-0.3,i,3.9,4.4,-14.1

# Four entries from above, with each value named.
> C=CCNc1nc(NC(C)(C)CO)nc(OCC)n1
  HIV Env fusion = -45.3
  PABP FP inh = 11.0
  UUG fidelity = -24.2
  eIF4H inh = 1.6
  Rce1 inh = i
  MT1-MMP act inh = 3.7
  MT1-MMP act inh RFP = 3.5
  CSC inhib = 0.7

> CCN(CC)CCC(=O)NC(C)(C)Cc1ccc(O)cc1
  HIV Env fusion = -16.4
  PABP FP inh = -8.8
  UUG fidelity = -2.0
  eIF4H inh = -2.1
  Rce1 inh = i
  MT1-MMP act inh = 5.2
  MT1-MMP act inh RFP = 8.8
  CSC inhib = 24.5

> CCOC(=O)CN1CC23C=CC(O2)C(C(=O)NC2CCCCCC2)C3C1=O (stereo not drawn)
  HIV Env fusion = 2.2
  PABP FP inh = 7.2
  UUG fidelity = -0.8
  eIF4H inh = -0.3
  Rce1 inh = i
  MT1-MMP act inh = -8.8
  MT1-MMP act inh RFP = -4.0
  CSC inhib = -9.1

> O=C(NC(Cc1c[nH]c2ccccc12)C(=O)NCc1ccc(F)cc1)OCc1ccccc1 (stereo not drawn)
  HIV Env fusion = -26.2
  PABP FP inh = -7.0
  UUG fidelity = -6.5
  eIF4H inh = 6.7
  Rce1 inh = i
  MT1-MMP act inh = 2.1
  MT1-MMP act inh RFP = -5.7
  CSC inhib = -8.6

# (continued)
SMILES,HIV Env fusion,PABP FP inh,UUG fidelity,eIF4H inh,Rce1 inh,MT1-MMP act inh,MT1-MMP act inh RFP,CSC inhib
COc1cccc(/C=N/NC(=O)CSc2nnc(C)n2-c2ccccc2)c1OC,/,8.0,-51.6,-10.8,i,-0.5,-0.2,-7.3
CN(C(=O)CCN1C(=O)C2C3C=CC(C3)C2C1=O)c1ccccc1 (stereo not drawn),-6.9,-3.8,/,-3.8,i,2.4,5.0,-8.6
CC(C)(C)c1cc2nc(NCCc3ccc(S(N)(=O)=O)cc3)ccn2n1,9.1,/,11.4,/,/,-2.3,1.0,/
O=Nc1ccc(O)c2ncccc12,i,8.1,/,25.9,i,-11.0,6.3,36.8
COC(=O)C1=C(CCc2ccccc2)NC(=O)NC1c1ccc(Cl)cc1 (stereo not drawn),-44.6,/,14.0,/,i,10.0,-5.4,5.7
Cc1ccc(NS(=O)(=O)c2cccs2)nc1,16.4,10.3,-11.3,-2.9,i,0.1,6.2,-3.2
Cc1ccc(S(=O)(=O)Nc2ccc(O)c(Sc3ncn[nH]3)c2)cc1,2.9,3.6,-0.1,3.8,i,0.7,-3.9,4.3
COc1cc(CCC(=O)OCC(=O)NC(=O)c2ccc(Cl)cc2)cc(OC)c1OC,2.1,8.8,-0.5,-7.7,i,-1.7,3.3,-3.3
COC(=O)c1cccc(NC(=O)CSc2nc(C)cc(=O)[nH]2)c1,-49.9,18.2,-4.5,14.9,i,-0.6,2.2,-11.1
